rRNA inh HTS: selective bacterial rRNA inhibition in E. coli | E. coli WT GFP vs humanized-ribosome RFP mutants, fluorescence, 24 h; active compounds read low; DMSO median 0, no signal -100 | GFP signal change (wild-type ribosome), % (concentration not given with the values) | 350,000 compounds, 1.6% hits | AID 720706;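 active means significant combined selectivity score with lowered wild-type GFP, culture density cut under 30%, mutant RFP and density less affected; inactive means any of these conditions unmet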; further: one replicate is shown; some compounds called inactive have numbers as strong as hits
MLL AF4-AF9 inh: blocks AF4 peptide binding to human AF9. AlphaScreen, biotin-AF4 peptide binding to FLAG-AF9. inhibition, % at 10 µM. 350,000 compounds, 0.47% hits;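 active means every replicate reaching a set inhibition limit, whatever the replicate mean, cut at about 25% in these data; inconclusive means mean inhibition reaches that limit but some replicates miss it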;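 further: 0% = plate neutral control median and 100% = total signal loss; the record names both 10 and 1 µM as test concentration; the first replicate is given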
Target sequence (P42568 whole entry, looked up): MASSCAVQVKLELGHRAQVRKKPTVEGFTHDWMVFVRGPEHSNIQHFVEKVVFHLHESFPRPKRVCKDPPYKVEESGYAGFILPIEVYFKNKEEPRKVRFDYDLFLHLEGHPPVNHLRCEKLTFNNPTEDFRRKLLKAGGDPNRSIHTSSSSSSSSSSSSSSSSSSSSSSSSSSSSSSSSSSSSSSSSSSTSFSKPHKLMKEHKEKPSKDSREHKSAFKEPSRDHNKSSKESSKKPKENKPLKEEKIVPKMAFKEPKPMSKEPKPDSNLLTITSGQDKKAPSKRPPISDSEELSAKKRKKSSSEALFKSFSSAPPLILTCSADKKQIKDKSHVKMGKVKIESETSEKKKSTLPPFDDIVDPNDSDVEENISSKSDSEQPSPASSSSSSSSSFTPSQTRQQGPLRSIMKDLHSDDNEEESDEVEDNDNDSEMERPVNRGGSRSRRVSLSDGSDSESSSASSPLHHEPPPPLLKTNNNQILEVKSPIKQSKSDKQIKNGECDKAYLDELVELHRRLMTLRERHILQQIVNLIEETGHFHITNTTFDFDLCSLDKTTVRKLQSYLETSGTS
FGF22 binding: shifts melting point of recombinant human FGF22 | 340,000 compounds, 1.5% hits | AID 651658 | calls only at 9.99 µM | recombinant FGF22 thermal shift, SYPRO orange fluorescence; percent of sucrose octasulfate shift, DMSO zero;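 active means melting point raised past a set limit in the mean and every replicate; inconclusive means no clear call; three in four hits are not shown here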
Target sequence (Q9HCT0 whole entry, looked up): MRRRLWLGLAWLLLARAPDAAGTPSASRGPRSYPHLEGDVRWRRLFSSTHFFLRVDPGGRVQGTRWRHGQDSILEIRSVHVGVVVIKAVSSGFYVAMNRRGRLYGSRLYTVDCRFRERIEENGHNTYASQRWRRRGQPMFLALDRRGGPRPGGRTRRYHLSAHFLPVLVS
Vif TR-FRET: HIV-1 Vif–A3G interaction blockers – biochemical, TR-FRET, GST-Vif 1-94, biotin-A3G peptide, dose response retest, primary screen (AID 1117319); 260,000 compounds, 0.57% hits; TR-FRET GST-Vif / biotin-A3G peptide binding; higher % means a stronger effect; test concentration not given here; strong numbers were not always called active; inhibition, %; hits with a dose series show IC50 in µM;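 active means above the screen mean plus three standard deviations and confirmed in dose response; inconclusive means results disagree or hit not tested in dose response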;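 further: Vif residues 1-94 fused to GST binding biotinylated APOBEC3G peptide 110-148; 0% = full assay without inhibitor and 100% = GST in place of GST-Vif; retest series ran down from 100 µM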
HNF4A DNA FP: change in binding of human HNF4 alpha to DNA | 360,000 compounds, 0.3% hits | P41235 | HNF4a-FITC DNA binding, fluorescence polarization, 1 h | activity change, % at 10 µM; in the data active means activity change above about 30%, passing the limit was not always enough;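 further: controls were the assay level and a saturating level of protein; the project sought stronger binding though the title names inhibitors; some compounds called inactive have numbers as strong as hits; positive values seem to mean higher polarization but the record does not say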
ALR H2O2 inh: blocks human ALR sulfhydryl oxidase activity; P55789; purified ALR, DTT oxidation, H2O2 HRP-luminol luminescence; inhibition, % (no concentration beside the values); 290,000 compounds, 3.8% hits; AID 485317;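 active means mean and each replicate at 75% or more; inconclusive means only one of the two met; inactive means neither met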;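 further: stock transfer was 7.5 nL into about 7.5 µL; 0% = neutral wells and 100% = wells with inactivated enzyme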
Target sequence (P55789 whole entry, looked up): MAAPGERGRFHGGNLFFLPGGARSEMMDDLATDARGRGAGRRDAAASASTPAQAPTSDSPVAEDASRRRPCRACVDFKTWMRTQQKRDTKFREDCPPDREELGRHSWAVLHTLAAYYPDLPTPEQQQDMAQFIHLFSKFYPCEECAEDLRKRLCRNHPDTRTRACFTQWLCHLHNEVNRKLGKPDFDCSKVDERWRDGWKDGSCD
Ecoli growth: blocks Escherichia coli growth; OD600, 23 h; active compounds read low; OD600 absorbance (test concentration not listed); 330,000 compounds, 0.21% hits;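 active means OD600 absorbance below the run mean of sample wells minus 3.6 SD, in any replicate, cut at about 0.56 in these data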;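 further: stock transfer was 300 nL into about 60 µL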
rRNA inh HTS OD600: further read-out of rRNA inh HTS, marked with its call; OD600 change, %; measured here: OD600 growth;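 optical density of the mix in the first replicate; 0 = DMSO median and -100 = no signal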
rRNA inh HTS RFP: further read-out of rRNA inh HTS, marked with its call; RFP signal change, %; measured here: RFP humanized mutant strains;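 first replicate; 0 = DMSO median and -100 = no signal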
* hit, by the source's call; i = inactive; ? = inconclusive; · = no result given; + = active, no number. Only part of the results is shown, so the mix of outcomes need not match the whole.

no.	Compound	rRNA inh HTS	rRNA inh HTS OD600	rRNA inh HTS RFP	MLL AF4-AF9 inh	FGF22 binding
1	COc1ccc(S(=O)(=O)Nc2ccc3c(c2)CC(=O)N([C@H](C)CO)C[C@@H](C)[C@H](CN(C)C(=O)Nc2ccc4c(c2)OCO4)O3)cc1	0	2	-2.3	1.7	i
2	COc1ccc(S(=O)(=O)N(CC(=O)NCc2cccnc2)c2ccc(C)cc2)cc1OC	1	-4	-2.9	-1.9	i
3	CSc1ccc(NC(N)=S)cc1	14	6	-0.7	-1.6	i
4	O=C(c1ccc(F)cc1F)N1CCCC(c2nc(-c3ccc(F)cc3)no2)C1 (stereo not drawn)	-21*	-17*	-1.8*	-2.7	i
5	CCN(CC)CCNC(=S)Nc1ccc2nc(N3CCN(C)CC3)cc(C)c2c1	12	13	0.3	7.4	i
6	Cc1ccc(C(=O)NC(=S)N2CCCC2)cc1	8	2	-1.6	-6.7	i
7	COc1ccc(OC)c(N(CC(=O)Nc2cccnc2)S(C)(=O)=O)c1	·	·	·	·	·
8	CCC(=O)Nc1ccc(NC(=S)NC(=O)Cc2ccccc2)cc1	·	·	·	·	·
9	CCCC#Cc1cnc2c(c1)C(=O)N([C@@H](C)CO)C[C@H](C)[C@H](CN(C)C(=O)c1ccccc1)O2	6	9	-0.5	-1.3	i
10	O=C(C[C@@H]1C[C@H]2c3cc(NC(=O)c4ccc5c(c4)OCO5)ccc3O[C@H]2[C@@H](CO)O1)NCCN1CCCCC1	2	4	-0.1	5.2	i
11	Cc1ccc(C)n1-c1ccc(N(C)C)cc1	6	8	7.4	?	i
12	CCOc1ccc2nc(N/C(N)=N/C(=S)Nc3ccc(OC)cc3)nc(C)c2c1	-4	-3	2.8	0.7	i

no.	Vif TR-FRET	HNF4A DNA FP	ALR H2O2 inh	Ecoli growth
1	·	·	·	·
2	-8%	2.0	-11	0.65
3	-5%	0.5	-2	0.63
4	·	6.7	-28	0.67
5	-2%	3.1	-1	0.69
6	-1%	0.4	28	0.69
7	-4%	3.5	-3	0.73
8	-6%	2.8	47	0.7
9	·	·	·	·
10	·	·	·	·
11	?	-0.7	·	0.68
12	-14%	-1.4	·	0.7

Further compounds
no.	Compound	rRNA inh HTS	rRNA inh HTS OD600	rRNA inh HTS RFP	MLL AF4-AF9 inh	FGF22 binding
13	O=C(N[C@H]1CC[C@@H](CCNS(=O)(=O)c2ccc(F)cc2)O[C@H]1CO)c1ccccn1	0	11	-1.5	0.2	+
14	COc1ccc(C(=O)OCC(=O)NC2CC2)cc1	·	·	·	1.3	i
15	O=C(C[C@@H]1C/C=C\C[C@@H](Cc2ccc(F)cc2)C(=O)OC[C@@H]2CCCN2C1=O)N[C@H](CO)Cc1ccccc1	-18	-16	-6.8	2.4	i
16	O=C(NCCCN1CCOCC1)c1cc2c(s1)-c1ccccc1OC2	-6	-10	10	3.8	i
17	N=c1c2ccccc2nc2n1CCCCC2	9	9	-1.3	7.0	i
18	COc1ccc(/C(C)=N/N2CCOCC2)c(O)c1	7	13	6.8	14	i
19	CCOCCn1c(CN(C)Cc2ccccc2)nc2c1c(=O)n(C)c(=O)n2C	1	5	-2.2	3.0	i
20	O=C(c1snnc1-c1ccccc1)N1CCOCC1	26	32	1.1	?	i
21	NCCCn1c(C(=O)c2cc(Cl)c(N)c(Cl)c2)c2ccc([N+](=O)[O-])cc2[n+]1[O-]	-5	-5	-1.8	11	i
22	CC1=NN(c2ccccc2C)C(=O)C1	16	7	2.6	2.2	i
23	Cn1cc(S(=O)(=O)NC(c2ccccc2)c2ccccc2)c(=O)n(C)c1=O	4	-1	-1.0	-3.4	i
24	COc1ccc(C(=O)Cn2nnc(-c3ccccc3NC(=O)C(F)(F)F)n2)cc1	·	·	·	·	·

no.	Vif TR-FRET	HNF4A DNA FP	ALR H2O2 inh	Ecoli growth
13	·	·	·	·
14	-8%	0.8	·	·
15	·	-6.9	-22	·
16	·	5.0	-11	0.64
17	3%	1.9	·	·
18	-10%	1.1	5	·
19	·	2.8	-9	0.74
20	-8%	8.5	-1	0.69
21	·	4.8	-79	0.42*
22	3%	-0.1	·	0.69
23	10%	0.8	-6	0.68
24	1%	1.8	1	0.74

By substructure: those above containing a halogen (5)
no.	Compound	rRNA inh HTS	rRNA inh HTS OD600	rRNA inh HTS RFP	MLL AF4-AF9 inh	FGF22 binding
4	O=C(c1ccc(F)cc1F)N1CCCC(c2nc(-c3ccc(F)cc3)no2)C1 (stereo not drawn)	-21*	-17*	-1.8*	-2.7	i
13	O=C(N[C@H]1CC[C@@H](CCNS(=O)(=O)c2ccc(F)cc2)O[C@H]1CO)c1ccccn1	0	11	-1.5	0.2	+
15	O=C(C[C@@H]1C/C=C\C[C@@H](Cc2ccc(F)cc2)C(=O)OC[C@@H]2CCCN2C1=O)N[C@H](CO)Cc1ccccc1	-18	-16	-6.8	2.4	i
21	NCCCn1c(C(=O)c2cc(Cl)c(N)c(Cl)c2)c2ccc([N+](=O)[O-])cc2[n+]1[O-]	-5	-5	-1.8	11	i
24	COc1ccc(C(=O)Cn2nnc(-c3ccccc3NC(=O)C(F)(F)F)n2)cc1	·	·	·	·	·

no.	Vif TR-FRET	HNF4A DNA FP	ALR H2O2 inh	Ecoli growth
4	·	6.7	-28	0.67
13	·	·	·	·
15	·	-6.9	-22	·
21	·	4.8	-79	0.42*
24	1%	1.8	1	0.74

Other records follow.
no.	Compound	rRNA inh HTS	rRNA inh HTS OD600	rRNA inh HTS RFP	MLL AF4-AF9 inh	FGF22 binding
25	COc1ccc(/C(C)=N/NC(=O)CNC(=O)/C=C\c2ccccc2)c(OC)c1	1	8	-3.1	-1.4	i
26	O=C(NCC1CCCN1S(=O)(=O)c1cccs1)C(=O)Nc1ccccc1Cl (stereo not drawn)	-15	-25	-3.7	1.8	i
27	CC(=O)c1ccc(OCC(=O)N2CCN(S(=O)(=O)c3ccc(C)cc3C)CC2)cc1	13	2	2.9	-0.9	i
28	Cc1ccc(S(=O)(=O)N2CCN(C(=O)COC(=O)c3c(C)noc3C)CC2)c(C)c1	3	3	2.0	-6.6	i
29	COC[C@@H]1CCCN1[C@@H]1CS(=O)(=O)N[C@H]1COCc1ccccc1	7	7	-2.1	-0.5	i
30	COc1ccc(S(=O)(=O)NCc2ccncc2)cc1NC(=O)c1ccccc1C	3	11	0.6	-0.2	i
31	Cc1cccc(N2CCN(C(=S)NCCc3ccccc3)CC2)c1C	·	·	·	·	·
32	COc1cccc(S(=O)(=O)N[C@@H]2C=C[C@@H](CC(=O)NCc3ccccc3)O[C@@H]2CO)c1	3	5	-1.6	-1.1	i
33	N#Cc1ccccc1Sc1ccccc1C(=O)OCC(=O)NC1CCS(=O)(=O)C1 (stereo not drawn)	8	9	1.6	3.2	i
34	CCOC(=O)c1csc(NC(=O)c2ccccc2)n1	-6	-8	-1.4	-0.8	i
35	COc1ccccc1NC(=S)N1CCN(C(=O)c2ccco2)CC1	·	·	·	·	·
36	CN(C)C(=O)c1ccc(NC(=O)CSc2nnc(-c3ccc4c(c3)OCO4)o2)cc1	1	5	-3.3	-0.3	i

no.	Vif TR-FRET	HNF4A DNA FP	ALR H2O2 inh	Ecoli growth
25	·	-3.1	-2	·
26	-4%	0.5	-6	0.64
27	·	-4.4	4	0.69
28	-3%	-2.4	-7	0.7
29	·	2.7	·	·
30	8%	-1.9	-9	0.7
31	-5%	0.6	-6	0.67
32	·	·	·	·
33	·	2.2	3	0.66
34	5%	-0.1	·	0.7
35	-1%	0.3	-14	0.65
36	2%	0.8	·	0.66

(continued)
no.	Compound	rRNA inh HTS	rRNA inh HTS OD600	rRNA inh HTS RFP	MLL AF4-AF9 inh	FGF22 binding
37	C[C@H](CO)N1C[C@H](C)[C@@H](CN(C)C(=O)CN(C)C)Oc2cc(C3=CCCCC3)ccc2S1(=O)=O	2	7	-0.7	-1.4	+
38	O=C(/C(=C/c1cccnc1)n1ccnc1)c1ccc(Cl)cc1Cl	-3	-13	7.8	1.0	i
39	Cc1noc(C)c1NC(=O)Nc1ccc2c(c1)CC(=O)N([C@H](C)CO)C[C@@H](C)[C@H](CN(C)S(=O)(=O)c1ccc(Cl)cc1)O2	3	19	-1.0	-8.4	i
40	COc1ccc(N(CC(=O)Nc2cccc(F)c2)S(=O)(=O)c2c(C)[nH]c(=O)[nH]c2=O)cc1	-5	-5	2.9	-1.4	i
41	Cc1onc(-c2ccccc2Cl)c1C(=O)Nc1ccc(-n2nncc2-c2ccco2)cc1	·	·	·	·	·
42	CCNC(=O)CN(c1ccc(OC)c(OC)c1)S(=O)(=O)c1ccccc1	·	·	·	·	·
43	O=C(O)CSc1ncnc2sc3c(c12)CCCC3	-22	-30	-4.2	-2.5	i
44	COc1ccc(-c2nc(NC(=O)C3CC(=O)N(c4ccc5c(c4)OCCO5)C3)sc2C)cc1 (stereo not drawn)	-20	-28	-3.6	1.3	i
45	COc1cc2c(cc1NC(=S)NC(=O)/C=C/c1ccc(OC)c(OC)c1)oc1ccccc12	1	12	-0.5	-8.7	·
46	O=C(COC(=O)c1ccc(Cl)cc1[N+](=O)[O-])NCc1ccco1	·	·	·	2.3	i
47	O=C(Nc1ccc(N2CCCC2)cc1)c1cccc(Cl)c1	2	9	6.1	-0.4	i
48	CC(C)c1ccc(NC(=O)Nc2nc(C(N)c3ccccc3)cs2)cc1 (stereo not drawn)	-46	-75	-7.8	8.8	i

no.	Vif TR-FRET	HNF4A DNA FP	ALR H2O2 inh	Ecoli growth
37	·	·	·	·
38	-3%	0.9	·	0.67
39	·	·	·	·
40	6%	3.9	5	0.71
41	5%	4.5	-3	0.67
42	-3%	4.4	-3	0.73
43	·	-1.6	-11	0.74
44	20%	-3.4	1	0.72
45	·	4.7	·	·
46	·	0.0	-7	0.64
47	0%	1.7	23	0.72
48	·	2.3	·	·

Records above shown as hits in Ecoli growth.
no.	Compound	rRNA inh HTS	rRNA inh HTS OD600	rRNA inh HTS RFP	MLL AF4-AF9 inh	FGF22 binding
21	NCCCn1c(C(=O)c2cc(Cl)c(N)c(Cl)c2)c2ccc([N+](=O)[O-])cc2[n+]1[O-]	-5	-5	-1.8	11	i

no.	Vif TR-FRET	HNF4A DNA FP	ALR H2O2 inh	Ecoli growth
21	·	4.8	-79	0.42*

Later entries
no.	Compound	rRNA inh HTS	rRNA inh HTS OD600	rRNA inh HTS RFP	MLL AF4-AF9 inh	FGF22 binding
49	CCCCn1c(N2CCC(Cc3ccccc3)CC2)nc2c1c(=O)[nH]c(=O)n2C	·	·	·	·	·
50	Cc1nn(-c2ccccc2)c(Cl)c1C(=O)NCC(C)c1ccccc1 (stereo not drawn)	-14	-20	2.2	-14	i
51	O=C(c1ccc(S(=O)(=O)N2CCCC2)cc1)N1CCCCCC1	16	7	-6.6	7.6	i
52	COC(=O)c1ccc(N=Cc2c(-c3ccccc3)[nH][nH]c2=O)cc1	9	3	-1.4	-1.0	i
53	C/C=C/c1ccc([C@@H]2[C@@H](CN(C)C(=O)CC)N(C(=O)NCCC)[C@H]2CO)cc1	-2	5	-3.7	-1.6	i
54	CCc1ccc2c(CN3CCN(Cc4ccccc4)CC3)cc(=O)oc2c1	4	2	4.1	4.4	i
55	Cc1ccc(Cn2nnc(C(=O)Nc3cc(C)ccc3C)c2N)cc1	·	·	·	·	·

no.	Vif TR-FRET	HNF4A DNA FP	ALR H2O2 inh	Ecoli growth
49	15%	-3.6	·	0.7
50	-2%	0.7	-2	0.7
51	2%	2.0	·	0.7
52	10%	2.5	9	0.72
53	·	·	·	·
54	·	0.3	2	0.64
55	3%	3.5	1	0.71
